# Vaccinia stage = blocks a specific stage of Vaccinia orthopoxvirus infection. 0.01% of 89,000 active. AID 1053133. Vaccinia-infected cells, mCherry/Venus stage reporter fluorescence; active compounds read low; some inactives read as strong as hits. activity change (mCherry), % (no concentration beside the values);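 active = mCherry past -33% and 40 or more points under the early reporter, replicates agreeing; inconclusive = past -33% without that gap or agreement; tested in A549 cells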;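 also: scaled between vehicle wells and reference inhibitor wells; 23 nL library stock went into each well; one replicate is shown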
# Vaccinia stage Venus = also measured in Vaccinia stage; calls as there; activity change (Venus), %; measured here: Venus reporter, other viral stage;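 negative = less Venus signal; first of two replicates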
# * marks the source's active call; other numbers are inactive results; ? = inconclusive; nt = not tested or not shown. Not all compounds are listed. The share of hits here may be higher or lower than overall.
molecule | Vaccinia stage Venus | Vaccinia stage
O=C(Cc1ccccn1)N[C@@H]1CC[C@H](CC(=O)N2CCCCC2)O[C@@H]1CO | 33.5 | 12.1
COc1ccc(NC(=O)Nc2ccc3c(c2)C(=O)N([C@@H](C)CO)C[C@@H](C)[C@H](CN(C)C)O3)cc1 | 8.6 | 9.9
O=C(c1cccc(F)c1)N1CCCCN2[C@H](CO)[C@@H](c3ccc(-c4cncnc4)cc3)[C@H]2C1 | 10.1 | 37.4
O=C(CCN1CCCCC1)N[C@@H]1C=C[C@H](CC(=O)N2CCC(Cc3ccccc3)CC2)O[C@H]1CO | 5.3 | 0.1
C[C@H]1CN([C@@H](C)CO)C(=O)c2cccc(NS(=O)(=O)c3cccs3)c2O[C@H]1CN(C)S(=O)(=O)c1cccs1 | 3.2 | 14.6
C/C=C/c1ccccc1[C@@H]1[C@H](C#N)N(C(C)=O)[C@H]1CO | 15.3 | 18.1
CN(C)c1ccc2c(c1)[C@@H]1C[C@H](CC(=O)O)O[C@@H](CO)[C@@H]1O2 | -7.6 | -6.2
COc1ccc(NC(=O)Nc2ccc3c(c2)C(=O)N([C@@H](C)CO)C[C@H](C)[C@H](CN(C)S(=O)(=O)c2ccc(C)cc2)OCCCC[C@@H](C)O3)cc1 | 7.9 | 24.4
C[C@@H]1CCCCO[C@H](CN(C)C(=O)NC2CCCCC2)[C@H](C)CN([C@@H](C)CO)C(=O)c2cc(NC(=O)NC3CCCCC3)ccc2O1 | nt | ?
CN1C(=O)c2cc(NC(=O)c3cscn3)ccc2OC[C@H]2O[C@H](CC(=O)N3CCOCC3)CC[C@H]21 | -0.2 | -3.7
C[C@@H]1CN([C@@H](C)CO)C(=O)c2cc(-c3ccccc3F)cnc2O[C@H]1CN(C)Cc1ccc(F)cc1 | nt | ?
COc1ccc(NC(=O)Nc2ccc3c(c2)C(=O)N([C@@H](C)CO)C[C@H](C)[C@@H](CN(C)S(=O)(=O)c2ccc(OC)cc2)O3)cc1 | 3.1 | 0.4
C[C@H](CO)N1C[C@H](C)[C@H](CN(C)Cc2ccc(C(=O)O)cc2)Oc2ccc(NS(=O)(=O)c3cccs3)cc2C1=O | 9.2 | 20.4
C[C@H](CO)N1C[C@H](C)[C@H](CN(C)Cc2ccncc2)Oc2ccc(NC(=O)Nc3cccc4ccccc34)cc2CC1=O | -9.7 | -18.4
N#C[C@@H]1[C@@H](c2ccc(-c3cccc(F)c3)cc2)[C@@H](CO)N1S(=O)(=O)c1cccc(F)c1 | nt | ?
CO[C@H]1CN(C)C(=O)c2ccc(NS(=O)(=O)c3cccc(C)c3)cc2OC[C@H](C)NC[C@@H]1C | 9.7 | 15.9
CC(C)NC(=O)Nc1ccc2c(c1)C(=O)N([C@H](C)CO)C[C@H](C)[C@@H](CN(C)C(=O)c1ccncc1)OCCCC[C@H](C)O2 | 11.2 | 25.3
CN(C)C(=O)[C@H]1[C@H](CO)[C@H]2Cn3c(ccc(-c4ccccc4)c3=O)[C@@H]1N2C(=O)C1CCCC1 | 3.9 | 12.2
C[C@@H]1CCCCO[C@@H](CN(C)S(=O)(=O)c2ccc(Cl)cc2)[C@@H](C)CN([C@H](C)CO)C(=O)c2cc(NC(=O)Nc3cccc4ccccc34)ccc2O1 | 20.6 | 23.1
COc1ccc2c3c([nH]c2c1)[C@H](CO)N(C)CC31CN(S(=O)(=O)c2cn(C)cn2)C1 | 8.2 | 21.6
CCNC(=O)[C@H]1[C@H](CO)[C@H]2Cn3c(ccc(-c4ccccc4F)c3=O)[C@@H]1N2S(C)(=O)=O | 7.9 | 8.8
COc1ccccc1C#Cc1cnc2c(c1)C(=O)N([C@H](C)CO)C[C@H](C)[C@H](CN(C)S(=O)(=O)c1cn(C)cn1)O2 | 8.5 | 7.4
C[C@@H]1CN([C@@H](C)CO)C(=O)c2cccc(NC(=O)C3CCCCC3)c2O[C@H]1CN(C)C(=O)Nc1cccc2ccccc12 | 8.4 | 15.4
COc1ccc(CN(C)C[C@H]2Oc3c(NC(=O)Nc4ccc5c(c4)OCO5)cccc3C(=O)N([C@@H](C)CO)C[C@@H]2C)cc1 | -4.9 | -7.5
C[C@@H]1CN([C@H](C)CO)C(=O)c2cccc(NC(=O)Nc3ccc4c(c3)OCO4)c2O[C@H]1CN(C)CC1CC1 | 3.8 | -11.6
C[C@@H]1CCCCO[C@@H](CN(C)Cc2ccc(C(F)(F)F)cc2)[C@@H](C)CN([C@H](C)CO)C(=O)c2cc(N(C)C)ccc2O1 | -25.3 | -14.1
CN1[C@@H]2c3cccc(=O)n3C[C@H]1[C@H](CO)[C@H]2C(=O)NCC1CCCCC1 | 13.1 | 11.9
CC(C)NC(=O)Nc1ccc2c(c1)C(=O)N([C@H](C)CO)C[C@H](C)[C@H](CN(C)C(=O)Nc1ccc3c(c1)OCO3)O2 | 18.0 | 28.1
C[C@H](CO)N1C[C@H](C)[C@@H](CN(C)Cc2ccncc2)Oc2c(NS(=O)(=O)c3cccs3)cccc2C1=O | 10.6 | 24.6
O=C(Nc1ccc(F)cc1)Nc1ccc2c(c1)[C@@H]1C[C@H](CC(=O)N3CCOCC3)O[C@H](CO)[C@@H]1O2 | 2.2 | 1.4
CCC(=O)N(C)C[C@H]1Oc2ncc(C#Cc3ccc(OC)cc3)cc2C(=O)N([C@H](C)CO)C[C@@H]1C | 2.8 | 11.0
CCCNC(=O)N1CC2(CCN(S(=O)(=O)c3cccc(OC)c3)CC2)c2c(n(C)c3cc(OC)ccc23)[C@@H]1CO | nt | ?
C[C@@H]1CN([C@H](C)CO)C(=O)c2cc(-c3ccc(F)cc3)cnc2O[C@H]1CN(C)C(=O)c1ccccc1F | 7.9 | 26.1
CO[C@@H]1CN(C)C(=O)c2ccc(NS(=O)(=O)c3ccccc3)cc2OC[C@H](C)N(C)C[C@H]1C | 5.5 | 24.3
CC(C)C#Cc1ccc2c(c1)O[C@@H](CN(C)C(=O)CC1CC1)[C@H](C)CN([C@H](C)CO)S2(=O)=O | -10.9 | -13.8
CC(C)NC(=O)N[C@@H]1CC[C@@H](CCn2cc(-c3ccc(F)cc3)nn2)O[C@H]1CO | -9.3 | -6.3
C[C@H]1CN([C@@H](C)CO)C(=O)c2cc(C#CC3(O)CCCC3)cnc2O[C@@H]1CN(C)Cc1ccncc1 | 20.3 | 27.3
O=C(C[C@@H]1C=C[C@H](NS(=O)(=O)c2ccccc2F)[C@H](CO)O1)NCCCN1CCOCC1 | 4.1 | 13.3
C[C@@H]1CCCCO[C@H](CN(C)C(=O)CCCN(C)C)[C@@H](C)CN([C@H](C)CO)C(=O)c2cc(NC(=O)NC3CCCCC3)ccc2O1 | 9.9 | 14.1
C[C@@H]1CN([C@H](C)CO)C(=O)c2cc(NC(=O)Nc3ccc4c(c3)OCO4)ccc2O[C@@H](C)CCCCO[C@@H]1CN(C)C(=O)c1ccccc1 | 3.5 | 15.1
C[C@@H]1CN([C@H](C)CO)C(=O)CCCn2cc(nn2)CO[C@@H]1CN(C)S(=O)(=O)c1ccc(Oc2ccccc2)nc1 | -6.0 | -4.7
COC(=O)C[C@@H]1C=C[C@H](NS(=O)(=O)c2ccc(OC)cc2)[C@@H](CO)O1 | 0.2 | -0.8
CCCNC(=O)N(C)C[C@H]1Oc2ncc(-c3ccc(F)cc3)cc2C(=O)N([C@@H](C)CO)C[C@@H]1C | -6.8 | 5.5
C[C@H](CO)N1C[C@H](C)[C@H](CN(C)S(C)(=O)=O)OCCCC[C@H](C)Oc2ccc(NC(=O)Nc3cccc4ccccc34)cc2C1=O | 14.3 | 18.6
Cc1noc(C)c1NC(=O)N[C@H]1C=C[C@@H](CC(=O)N2CCCCC2)O[C@@H]1CO | 7.9 | 0.7
CO[C@H]1O[C@H](CO)[C@@H](OC(=O)Nc2cccc(F)c2)[C@H](OC(=O)Nc2ccccc2)[C@@H]1OC(=O)Nc1ccccc1 | nt | ?
CCS(=O)(=O)N1C[C@@H](C)[C@H](OC)CN(C)C(=O)c2ccc(NC(=O)Nc3ccccc3Cl)cc2OC[C@H]1C | 6.6 | -9.6
C[C@@H]1CN([C@H](C)CO)C(=O)c2cc(NC(=O)Nc3ccc(F)cc3)ccc2O[C@@H](C)CCCCO[C@H]1CN(C)C(=O)C1CCCCC1 | -19.5 | -26.0
C[C@@H]1CN([C@@H](C)CO)C(=O)c2cc(NC(=O)CCC(F)(F)F)ccc2O[C@@H](C)CCCCO[C@@H]1CN(C)S(=O)(=O)c1ccc(Cl)cc1 | -12.2 | -16.3
C[C@H](CO)N1C[C@H](C)[C@@H](CN(C)S(=O)(=O)c2cccs2)Oc2c(NC(=O)C3CCOCC3)cccc2C1=O | 8.1 | 21.2

# Part of the list above in order of heavy-atom count, high to low.
molecule | Vaccinia stage Venus | Vaccinia stage
C[C@@H]1CN([C@H](C)CO)C(=O)c2cc(NC(=O)Nc3ccc4c(c3)OCO4)ccc2O[C@@H](C)CCCCO[C@@H]1CN(C)C(=O)c1ccccc1 | 3.5 | 15.1
CC(C)NC(=O)Nc1ccc2c(c1)C(=O)N([C@H](C)CO)C[C@H](C)[C@H](CN(C)C(=O)Nc1ccc3c(c1)OCO3)O2 | 18.0 | 28.1
CO[C@@H]1CN(C)C(=O)c2ccc(NS(=O)(=O)c3ccccc3)cc2OC[C@H](C)N(C)C[C@H]1C | 5.5 | 24.3
COC(=O)C[C@@H]1C=C[C@H](NS(=O)(=O)c2ccc(OC)cc2)[C@@H](CO)O1 | 0.2 | -0.8

# Further results.
molecule | Vaccinia stage Venus | Vaccinia stage
COCC(=O)N1CC(=O)N2[C@@H](CO)[C@H](c3ccc(C#CC4CCCCC4)cc3)[C@@H]2C1 | -12.6 | -8.7
C[C@H](CO)N1C[C@H](C)[C@H](CN(C)S(=O)(=O)c2cccs2)Oc2c(NC(=O)C3CC3)cccc2C1=O | 0.8 | 1.1
C[C@H](NC(=O)C[C@@H]1CC[C@@H]2[C@H](COC[C@H](O)CN2C(=O)Nc2cc(Cl)cc(Cl)c2)O1)c1ccccc1 | nt | ?
C[C@H]1CN([C@@H](C)CO)S(=O)(=O)c2ccc(C#CC3CC3)cc2O[C@@H]1CN(C)Cc1cccc(F)c1 | nt | ?
Cc1noc(C)c1S(=O)(=O)Nc1ccc2c(c1)C(=O)N([C@H](C)CO)C[C@H](C)[C@H](CN(C)Cc1ccc(C(=O)O)cc1)OCCCC[C@@H](C)O2 | 1.7 | 11.0
C/C=C/c1ccc([C@H]2[C@@H](CNC(=O)c3ccncc3)N(C(=O)CC)[C@H]2CO)cc1 | 0.8 | 2.8
C[C@H]1CN([C@@H](C)CO)S(=O)(=O)c2ccc(-c3ccc(C(=O)N(C)C)cc3)cc2O[C@H]1CN(C)C(=O)C1CCCCC1 | 7.3 | 4.5
CCCN(C)C[C@@H]1Oc2ncc(C#CCC(C)C)cc2C(=O)N([C@@H](C)CO)C[C@H]1C | nt | ?
O=C(c1ccccn1)N1C[C@@H]2[C@H](c3ccccc31)[C@H](CO)N2C(=O)C1CCCC1 | 5.7 | 10.2
C[C@H](CO)N1C[C@H](C)[C@H](CN(C)Cc2ccccc2)Oc2ccc(NC(=O)Cc3cn(C)c4ccccc34)cc2CC1=O | 17.1 | 0.3
O=C(C[C@@H]1CC[C@@H]2[C@H](COC[C@@H](O)CN2C(=O)Nc2ccccc2)O1)NCc1ccccc1F | 7.1 | 4.9
COCC(=O)Nc1ccc2c(c1)C(=O)N(C)C[C@@H](OC)[C@@H](C)CN(C(=O)Cc1ccccn1)[C@@H](C)CO2 | 10.6 | 9.3
C[C@@H]1CN([C@@H](C)CO)S(=O)(=O)c2ccc(C3=CCCC3)cc2O[C@H]1CN(C)C(=O)CN(C)C | -6.7 | -11.3
C[C@H](CO)N1C[C@H](C)[C@H](CN(C)C(=O)c2cnccn2)Oc2cc(C#CC3CC3)ccc2S1(=O)=O | -7.6 | 1.7
COc1cccc(-c2ccc(CC[C@H]3O[C@H]4CC[C@@H](CO)O[C@H]4C[C@@H]3NS(C)(=O)=O)cc2)c1 | -32.0 | -32.8
COc1ccc(NC(=O)N(C)C[C@H]2Oc3cc(-c4cccc(C(=O)N(C)C)c4)ccc3S(=O)(=O)N([C@@H](C)CO)C[C@@H]2C)cc1 | 1.4 | 5.4
CO[C@@H](C(=O)N(C)C[C@@H]1OCc2ccccc2-c2ccccc2C(=O)N([C@@H](C)CO)C[C@@H]1C)c1ccccc1 | 2.0 | 0.2
C[C@@H]1CN([C@@H](C)CO)C(=O)c2cc(N(C)C)ccc2O[C@H]1CN(C)Cc1ccc(C(=O)O)cc1 | 2.0 | 2.0
COc1ccc(NC(=O)N2C[C@H](O)COC[C@@H]3O[C@H](CC(=O)N4CCCCC4)CC[C@H]32)cc1 | 9.4 | 20.3
Cc1noc(C)c1NC(=O)Nc1ccc2c(c1)C(=O)N([C@H](C)CO)C[C@@H](C)[C@@H](CN(C)Cc1ccccc1)O2 | 16.8 | 23.5
O=C(O)C[C@@H]1C[C@@H]2c3cc(NC(=O)c4cccnc4)ccc3O[C@@H]2[C@@H](CO)O1 | 7.0 | 13.2
C[C@H](CO)N1C[C@H](C)[C@H](CN(C)C(=O)Nc2ccccc2)Oc2c(NC(=O)Nc3ccccc3)cccc2C1=O | -24.7 | -32.1
CCC(=O)N1[C@@H]2Cn3c(ccc(-c4ccc(F)cc4)c3=O)[C@H]1[C@@H](C(=O)N(C)C)[C@@H]2CO | -13.6 | -0.5
C[C@H]1CN([C@@H](C)CO)C(=O)c2cccc(NS(=O)(=O)c3cccs3)c2O[C@H]1CN(C)Cc1ccc(C(F)(F)F)cc1 | -4.8 | -10.0
O=C(N[C@H]1C[C@@H]2O[C@@H](CO)CC[C@@H]2O[C@@H]1CCc1ccc(-c2ccccc2)cc1)c1cnccn1 | -3.0 | -5.3
O=C(N[C@@H]1CC[C@H](CCNS(=O)(=O)c2ccc(F)cc2)O[C@H]1CO)c1cnccn1 | 13.9 | 1.1
CCCN(C)C[C@@H]1Oc2cc(-c3ccc(C)cc3)ccc2S(=O)(=O)N([C@@H](C)CO)C[C@H]1C | 2.5 | 9.8

# Screens deposited in PubChem BioAssay by Broad Institute.
